HCMV NEC inh = cytomegalovirus nuclear egress complex inhibition; HTRF UL50-UL53 interaction, normalized percent inhibition; inhibition, % (no concentration beside the values); 0.15% of 190,000 active; AID 1918969;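 active means both replicates at 50% or more, plus weaker picks with an unusually low signal ratio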;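 further: stock transfer was 100 nL into about 20 µL; 0% = negative control wells and 100% = wells with untagged competitor protein; inactives centre near -12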
GIV Gai3 FP = inhibitors of GIV GBA-motif binding to rat Galpha-i3; P08753; Galpha-i3/FITC-GIV peptide fluorescence polarization, 90 min; active compounds read low; scaled: aluminum fluoride 0%, vehicle 100%; 0.42% of 210,000 active; AID 1224905; percent of control (FP), % (test concentration not listed);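 active means replicate mean at 85% of control or lower, very high polarization wells dropped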;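 further: lower values mean more displacement of the GIV peptide from Galpha-i3; wells of about 15 µL received 100 nL stock; the first replicate is given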
Target sequence (P08753 whole entry, looked up): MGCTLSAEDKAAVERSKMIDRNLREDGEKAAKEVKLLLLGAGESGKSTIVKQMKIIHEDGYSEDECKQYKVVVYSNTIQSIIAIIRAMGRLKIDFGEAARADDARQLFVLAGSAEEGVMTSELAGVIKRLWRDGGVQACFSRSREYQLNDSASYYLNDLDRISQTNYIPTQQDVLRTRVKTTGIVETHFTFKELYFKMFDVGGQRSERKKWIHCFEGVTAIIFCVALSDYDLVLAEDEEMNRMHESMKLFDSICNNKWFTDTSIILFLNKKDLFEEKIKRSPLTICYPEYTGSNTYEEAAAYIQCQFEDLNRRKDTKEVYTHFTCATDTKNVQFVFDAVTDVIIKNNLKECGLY
Sa growth inh = blocks Staphylococcus aureus growth; relative growth, % (concentration not given with the values); AID 720641; 0.53% of 170,000 active; S. aureus RN4220 growth, OD600, 20 h, 42 °C; active compounds read low;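 active means growth at 42 °C up to 50% and 20 or more points under that at 30 °C, or under 10% at both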;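 further: 300 nL library stock went into each well; scaled to the means of positive and negative controls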
Sa growth inh second temp = recorded beside Sa growth inh, whose call it bears; relative growth, %; measured here: growth at 30 °C;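 optical density after 20 h as mean of two plates; 100% = untreated growth and lower means inhibition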
An asterisk follows results filed as active; x = no result given; & = joins results of further samples.

SMILES	HCMV NEC inh	GIV Gai3 FP	Sa growth inh	Sa growth inh second temp
CC(C)(C)c1ccc(C(=O)Nc2ccc(C(=O)OCc3cc(=O)n4ccsc4n3)cc2)cc1	x	98	96	83
CC1(C)Cc2ccccc2/C(=C/C(=O)Nc2ccccc2)N1	x	103	97	81
CCOc1ccc(NC(=O)C(=O)NCCc2csc(-c3ccc(C(F)(F)F)cc3)n2)cc1	x	98	102	83
CCCCCn1c(=O)[nH]c2cc(C(=O)NCc3ccc(F)cc3)ccc2c1=O	6	104	92	92
CC(C)CCNc1nc2c(-c3ccccc3)nnn2c2ccccc12	-3	109	100	82
CC(C)c1cccc(C(C)C)c1N1C(=O)c2ccc(O)cc2C1=O	-35	99	x	x
CCOc1ccc(C)cc1-n1nc2ccccc2n1	-10	98	84	79
COc1ccccc1-c1c(C)nn2c(-c3ccccc3)cc(-c3ccccc3)nc12	-17	103	110	88
O=C(OC(C(=O)c1ccccc1)c1ccccc1)c1ccccn1 (configuration not stated)	-24	x	100	91
CC(Oc1ccccc1)C(=O)n1c(=O)oc2ccccc21 (configuration not stated)	-3	108	98	97
Cn1nc(C(F)(F)F)c(-c2ccccc2)c1N	-1	104	96	85
COc1ccc(OCC(=O)NCc2nc3ccccc3[nH]2)cc1	-4	x	124	96
CCc1ccc(NC(=O)C2CCCN(c3nn4cc(-c5ccc(OC)cc5)nc4s3)C2)cc1 (configuration not stated)	x	106	117	90
Cc1onc(-c2ccccc2)c1NC(=O)N(Cc1ccccc1)C(C)C	-25	99	90	75
Cc1ccc(O)c(NC(=O)c2nn3c(c2Br)NC(c2cccs2)CC3C(F)(F)F)c1 (configuration not stated)	-24	92	x	x
CCOC(=O)c1cc(-c2ccccc2)sc1NC(=S)Nn1cnnc1	0	102	115	92
CN(C)c1ncc2c(=O)n(CC3CCCO3)ccc2n1 (configuration not stated)	2	110	105	96
CC(C)(C)c1ccc(C2Oc3ccccc3C3CC(c4ccc(Br)cc4)=NN32)cc1 (configuration not stated)	42*	102	x	x
O=C(NCc1ccccc1)C1CCCN1S(=O)(=O)c1cccc2nsnc12 (configuration not stated)	-52	103	102	87
COc1ccc(C2=NN3C(C2)c2cc(Br)ccc2OC3c2ccc(C(C)C)cc2)cc1 (configuration not stated)	10	108	x	x
Cc1ccc(C(=O)c2oc3ccccc3c2NC(=O)c2cc(-c3ccccc3)on2)cc1	-18	98	111	88
CNC(=O)OCc1cccc(COC(=O)NC)n1	-5	100	91	93
O=C(Cn1ccc2cc(S(=O)(=O)N3CCCCCC3)ccc21)NCCc1ccccc1Cl	x	99	83	91
COc1ccccc1NC(=O)c1cc(S(=O)(=O)N2CCc3ccccc32)ccc1F	x	101	99	82
CCc1ccccc1NC(=O)c1c(NC(=O)c2ccccc2)sc2c1CCCC2	-50	106	89	82
CCCCCC(=O)N1c2ccccc2NC2=C(C(=O)CC(C)(C)C2)C1c1cc(OC)ccc1OC (configuration not stated)	-18	103	x	x
CC1CCN(C(=O)c2csc(S(=O)(=O)N3CCN(C4CCCCC4)CC3)c2)CC1	-6	111	x	x
O=C(NC(c1ccccc1)c1nnc(-c2ccccc2)o1)c1cccc(Cl)c1 (configuration not stated)	-22	106	111	79
COC(=O)c1cc(NC(=O)CSCCc2ccccn2)cc(C(=O)OC)c1	-19	109	93	79
CCC(=O)N1CCc2cc(Br)cc(S(=O)(=O)CCC(=O)N(CC)Cc3ccccc3)c21	-11	100	91	89
O=C(CC1CCN(C(=O)Nc2cccc(Cl)c2)CC1)N1CCN(c2ccccn2)CC1	-14	101	x	x
COC(=O)c1sc(OC)cc1OC(=O)c1cccs1	-22	104	88	79
O=C(CC1CS(=O)(=O)CC1CC(=O)NCc1ccccc1)NCc1ccccc1 (configuration not stated)	-8	96	97	90
CCCOc1cccc(C(=O)NCc2csc(-c3ccc(OC)cc3)n2)c1	-22	101	x	x
N=C(N)SCP(=O)(c1ccccc1)c1ccccc1	6	99	114	90
COc1cc(/C=C2\Sc3ccccc3C2=O)cc(Cl)c1OC(C)C	-19	105	x	x
Cc1ccc(NC(=O)CN2CCCN(Cc3ccc(Cl)cc3)S2(=O)=O)c(Cl)c1	14	106	x	x
CN1CC(=O)N(CC(=O)Nc2cccc(C#N)c2)c2ccccc2C1=O	x	104	110	89
CC1(C)CC(=O)c2cnc(NC(=O)CSCC(=O)Nc3cccc(F)c3)nc2C1	-7	99	80	78
O=C(OCC(=O)N1CCc2ccccc2C1)c1ccc(Br)o1	-11	x	124	95
CC1CC2C3CCC4=CC(=O)C=CC4(C)[C@@]3(Cl)C(O)CC2(C)C1(O)C(=O)CO (some centres not stated)	-84	x	87	83
N#C/C(=C\Nc1ccc2c(c1)OCCO2)S(=O)(=O)c1cccs1	-6	98	96	60
CC(C)CC(NS(=O)(=O)c1ccc2[nH]c(=O)c(=O)[nH]c2c1)C(=O)O (configuration not stated)	-2	100&94	90	84
Cc1ccc2[nH]c3c(=O)n(CCC(=O)O)cnc3c2c1	-32	98	x	x
Cc1cc2n(n1)CC(C)(C(=O)NCc1ccccc1)N(c1ccc3c(c1)OCCO3)C2=O (configuration not stated)	6	96	x	x
CCOc1ncccc1C(=O)N1CCCSC1=Nc1ccccc1OC	-6	x	92	91
CCc1ccc(NC(=O)NCCCN2CCCc3ccccc32)cc1	x	102	89	69
Cc1cc2[nH][nH]c(=O)c2c(C)n1	-41	106	86	85
Cc1cc(SCc2ccc(C(F)(F)F)cc2)nc(=O)[nH]1	11	109	87	101
N#CC(C(=Nc1ccccc1)SCc1ccc(Cl)cc1)c1nc2ccccc2[nH]1 (configuration not stated)	0	107	113	87
NC(=O)c1ccc(NC(=O)C2CCN(S(=O)(=O)Cc3ccccc3)CC2)cc1	-20	101	105	86
CC(O)CCc1nc2ccccc2[nH]1 (configuration not stated)	-10	101	101	85
CCOC(=O)c1[nH]c2c(c1Cc1ccccc1)C(=O)CC(c1ccc(C(C)(C)C)cc1)C2 (configuration not stated)	-5	105	91	96
Cn1c(=O)c2ccc(C(=O)NC3CCCC3)cc2n2c(SCC(N)=O)nnc12	-18	106	x	x
CN(C)c1nc(-c2ccc(Cl)cc2)[nH]c(=O)n1	-1	108	89	94
Cc1cc(C(=O)OCc2cc(=O)oc3cc(C)c(Cl)cc23)c(C)o1	-4	x	84	97
Cc1ccc(S(=O)(=O)c2nnn(-c3ccc(F)c(Cl)c3)c2N)cc1	x	108	113	87
O=C(COC(=O)c1ccccn1)Nc1ccccc1	5	103	96	106
CNC(=O)NC(=O)CN1C(=O)c2ccccc2C1=O	12	x	100	98
COC(=O)c1ccccc1NC(=O)C1CCCN(c2nnc(-n3cccc3)s2)C1 (configuration not stated)	1	105	80	45

The results go on.
SMILES	HCMV NEC inh	GIV Gai3 FP	Sa growth inh	Sa growth inh second temp
O=C(c1cccs1)c1coc2ccc(O)c(CN(CCO)CCO)c12	-9	x	105	93
O=C(CNCc1ccc(F)cc1)N1CCC2(CC1)OCCO2	-20	101	80	85
Cc1c2cnn(CC(=O)N3CCC(Cc4ccccc4)CC3)c(=O)c2c(C)n1Cc1ccc(F)cc1	-7	104	x	x
Cc1ccc(NC(=O)c2cnn(-c3ccccc3)c2NC(=O)c2ccco2)cc1	2	107	95	97
COc1ccccc1Nc1ncc(C(=O)Nc2ccc(OC)c(OC)c2)c2ccccc12	0	103	116	89
Cc1ccc(NC(=O)c2cccc3c2C(=O)c2ccccc2-3)cc1	-20	x	102	93
N=Cc1c(C(F)(F)F)[nH]n(-c2nc3ccccc3s2)c1=O	x	100	89	98
N#CC1=C(N)S[C@H](C(=O)c2ccccc2)[C@H]1c1ccc(Br)c(F)c1	3	x	101	98
Cc1ccc(Cn2c(CO)cnc2SCC(=O)Nc2ccc(C)c(Cl)c2)cc1	x	105	113	95
Cc1ccc(-c2nc(S(=O)(=O)c3ccc(C)cc3)c(N3CCN(c4ccccc4)CC3)o2)cc1	4	101	102	96
CC1(C)CC(NC(=O)c2ccncc2)CC(C)(C)N1O	-7	x	91	91
NC(=O)CCN1C(=O)C2C3C=CC(C3)C2C1=O (configuration not stated)	5	x	86	97
Oc1ccc(C=Nc2cccnc2)cc1	5	99	93	108
Cc1cc2n(n1)CC(C)(C(=O)NCc1ccccc1)N(c1ccc(F)cc1)C2=O (configuration not stated)	-6	96	x	x
COc1ccccc1CNC(=O)CSCc1nc(-c2ccc(OC)c(OC)c2)oc1C	-18	111	114	83
Nc1nc(-c2ccc(OCc3ccc(Br)cc3)cc2)cs1	-13	x	93	81
CCN(CC)S(=O)(=O)c1ccc2[nH]c(=O)c3ccccc3c2c1	10	100	88	94
COc1cc(CNCC2CCCO2)cc(Cl)c1OCC(N)=O (configuration not stated)	-22	98	93	90
COc1ccccc1N1CCN(S(=O)(=O)c2ccc3nc(-c4ccccc4)[nH]c3c2)CC1	1	104	91	83
CCOC(=O)c1c(Nc2cccc(C(=O)OC)c2)nnc(-c2ccccc2)c1-c1ccccc1	-35	102	98	90
CC(C)(C)NC(=O)Oc1ccccc1	40	99	94	92
Cc1csc2c(NCCc3ccccn3)ncnc12	-31	102	95	84
CC(=O)N1CC=C(c2ccc(O)cc2)CC1	-16	x	38	31
CCC1Oc2ccc(C)cc2N(CC(=O)N(Cc2ccc(F)cc2)CC2CCCO2)C1=O (configuration not stated)	-17	105	96	94
COc1ccc2c(C)c(CCC(=O)NCc3ccc(OC)c(OC)c3)c(=O)oc2c1	-5	98	99	90
OCCN1CCN(c2ncnc3c2cnn3-c2ccc(Cl)c(Cl)c2)CC1	-12	107	102	65
COc1ccc(/C=C2\C(=O)NC(=S)N(c3ccc(Cl)cc3)C2=O)c(OC)c1OC	-9	109	x	x
CN1CCC(N(C)C(=O)NC2CCCCC2)CC1	-2	104	100	103
CCN(CC)C(=O)c1cc(-c2ccccc2)n[nH]1	x	106	108	87
CCCC(=O)NNc1ncc(C(=O)OCC)c(C(F)(F)F)n1	-17	100	95	95
O=C(C1CCN(c2ccc(-c3ccccc3)nn2)CC1)N1CCCC1	-65	100	x	x
Cc1ccc(-n2cc(C#N)c(C(=O)c3cccs3)n2)cc1	50	106	119	93
COc1cccc(-c2cc(C(=O)NC3CCC(C)CC3)[nH]n2)c1 (configuration not stated)	-9	101	102	88
c1ccc2c(c1)sc1nnc(Sc3ncnc4sc5c(c34)CCCC5)n12	-24	x	96	97
CCCCCC(=O)NC1CCN(Cc2ccccc2)CC1	2	100	99	100
N#Cc1cccnc1Cl	-5	104	92	80
CCOc1ccc(/C=C/C(=O)NCC(C)C)cc1OCC	-15	110	96	92
Cn1c(SCc2cc(F)cc3c2OCOC3)nnc1C(F)(F)F	13	106	91	101
Cc1ccc(NC(N)=O)cc1	-38	103	84	72
O=C1CC(c2nc(-c3cccc(Cl)c3)no2)CN1c1ccc2c(c1)OCCO2 (configuration not stated)	x	107	105	96
CC1CCC(C(=O)NC(C(=O)N2CCN(Cc3ccccc3)CC2)C(C)C)CC1 (configuration not stated)	-3	101	132	92
COc1ccc(C2=NN(C(C)=O)C(c3cn(-c4ccccc4)nc3-c3ccccc3)C2)cc1 (configuration not stated)	1	103	x	x
O=C(Nc1ccc2oc(-c3cc(Br)ccc3Cl)nc2c1)c1ccc2ccccc2c1	-40	99	102	87
O=C(c1ccc2c(c1)OCO2)N1CCC(c2nc(-c3ccc(F)cc3)no2)CC1	-17	104	x	x
Cc1ccc(/C=N\N2CCN(c3ccccc3)CC2)cc1	-19	98	93	87
O=C1CC(=O)CC(c2cccs2)C1	-20	102	102	80
Cc1ccc(C(=O)NC(C)c2ccc(S(N)(=O)=O)cc2)s1 (configuration not stated)	-14	x	94	85
CCc1ccc(-n2nc(CO)c(C(=O)NCCCc3ccccc3)n2)cc1	5	103	x	x

Screening results deposited in PubChem BioAssay by ICCB-Longwood Screening Facility, Harvard Medical School.
